Screening results deposited in PubChem by several laboratories.
A1 inh: inhibitors of the anti-apoptotic protein A1, read as caspase activation. MEF A1-2A-BIM cells, Caspase-Glo 3/7 luminescence, 3 h; percent of clofoctol response, vehicle zero. caspase activation, % (test concentration not listed). actives 0.066% (n = 330,000);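 active = over half of replicate activation scores above 10%, or exactly half above 10 with the replicate mean above 10; inconclusive = replicate mean below 10 yet half the replicates above 10; inactive = over half of replicates below 10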;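 note: wells of about 30 µL received 50 nL stock; many hits fall short of the cut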
Beta2AR agonist: human beta-2 adrenergic receptor agonism by FAP; P07550; Am2.2-beta2AR cells, FAP receptor internalization, flow cytometry; reference of the scale not given here; response, % (concentration not given with the values); actives 0.43% (n = 340,000); AID 504454;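 active = response above a set limit, near 3 SD of response in nonfluorescent compounds, cut at about 42% in these data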;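 note: stock transfer was 100 nL into about 11 µL; a reference agonist was the positive control; negative values mostly stem from fluorescent compounds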
Target sequence (P07550 whole entry, looked up): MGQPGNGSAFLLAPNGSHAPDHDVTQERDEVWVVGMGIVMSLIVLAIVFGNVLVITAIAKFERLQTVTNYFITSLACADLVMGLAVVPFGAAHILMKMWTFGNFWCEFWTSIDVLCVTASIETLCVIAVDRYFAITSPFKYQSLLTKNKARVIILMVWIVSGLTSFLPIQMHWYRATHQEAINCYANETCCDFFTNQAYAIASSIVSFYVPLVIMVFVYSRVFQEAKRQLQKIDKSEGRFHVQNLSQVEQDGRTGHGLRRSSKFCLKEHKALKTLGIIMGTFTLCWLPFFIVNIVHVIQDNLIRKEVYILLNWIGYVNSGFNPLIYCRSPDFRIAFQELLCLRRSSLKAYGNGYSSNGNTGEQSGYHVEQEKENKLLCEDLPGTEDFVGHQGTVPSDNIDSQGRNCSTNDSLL
UCH37 inh: inhibitors of human deubiquitinating enzyme UCH37. Q9Y5K5. purified proteasome/UCH37, Ub-AMC cleavage fluorescence. inhibition, % (no concentration beside the values). actives 0.33% (n = 330,000). AID 588478;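 active = mean of two replicates above 20%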;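 note: 0% = compound-free wells with enzyme and 100% = wells lacking proteasome; stock transfer was 100 nL into about 20 µL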
Target sequence (Q9Y5K5 whole entry, looked up): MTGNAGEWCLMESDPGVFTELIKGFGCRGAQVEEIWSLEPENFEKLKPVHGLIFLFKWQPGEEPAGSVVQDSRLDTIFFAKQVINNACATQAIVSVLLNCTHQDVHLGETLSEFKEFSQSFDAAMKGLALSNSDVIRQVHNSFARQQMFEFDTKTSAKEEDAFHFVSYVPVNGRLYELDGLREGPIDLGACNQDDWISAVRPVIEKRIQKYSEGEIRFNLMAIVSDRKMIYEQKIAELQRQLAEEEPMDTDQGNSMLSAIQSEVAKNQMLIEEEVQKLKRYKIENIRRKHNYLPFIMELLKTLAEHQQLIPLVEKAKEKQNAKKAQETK
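Material: human UCH37 enzyme supplied as purified proteasome complex. Measure: % inhibition of Ub-AMC cleavage fluorescence. Medium: pH 7.4 Tris-HCl (50 mM) with ovalbumin, ATP-MgCl2, DTT. Times: 30 min preincubation with enzyme, 25 min cleavage at room temperature. Detection: AMC fluorescence intensity at 355/460 nm.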
E coli growth: blocks Escherichia coli growth. OD600, 23 h; hits give low values. OD600 absorbance (concentration not given with the values). actives 0.21% (n = 330,000);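 active = OD600 absorbance below the run mean of sample wells minus 3.6 SD, in any replicate, cut at about 0.56 in these data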;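 note: stock transfer was 300 nL into about 60 µL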
HNF4A DNA FP: change in binding of human HNF4 alpha to DNA; P41235; HNF4a-FITC DNA binding, fluorescence polarization, 1 h; activity change, % at 10 µM; actives 0.3% (n = 360,000); in the data active = activity change above about 30%, passing the limit was not always enough;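 note: controls were the assay level and a saturating level of protein; the project sought stronger binding though the title names inhibitors; some compounds called inactive have numbers as strong as hits; positive values seem to mean higher polarization but the record does not say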
LANA-H2A inh: blocks KSHV LANA binding to histone H2A/H2B | Q9QR71 | cell-free LANA-H2A/H2B peptide, fluorescence polarization | inhibition, % (test concentration not listed) | actives 0.6% (n = 320,000); in the data active = inhibition mostly above about 10%, no sharp cut-off; inactive = mostly below about 6.7%;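 note: stock transfer was 7.5 nL into about 10 µL; 0% = median of vehicle wells and 100% = median of positive control wells; one replicate is shown; the record names a cut of 25% in any replicate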
Vif TR-FRET: inhibitors of Vif binding to APOBEC3G peptide, primary screen, biochemical, TR-FRET, GST-Vif 1-94, biotin-A3G peptide, dose response retest (AID 1117319) | actives 0.57% (n = 260,000) | TR-FRET GST-Vif / biotin-A3G peptide binding; higher % means a stronger effect; test concentration not given here; strong numbers were not always called active | one-dose inhibition, %; IC50 in µM for titrated hits;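 active = above the screen mean plus three standard deviations and confirmed in dose response; inconclusive = results disagree or hit not tested in dose response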;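 note: Vif residues 1-94 fused to GST binding biotinylated APOBEC3G peptide 110-148; 0% = full assay without inhibitor and 100% = GST in place of GST-Vif; retest series ran down from 100 µM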
* marks the source's active call; other numbers are inactive results; ? = inconclusive; / = not tested or not shown.

SMILES	A1 inh	Beta2AR agonist	UCH37 inh	E coli growth	HNF4A DNA FP	LANA-H2A inh	Vif TR-FRET
O=C(c1cc([N+](=O)[O-])cc([N+](=O)[O-])c1)N1CCN(Cc2ccc3c(c2)OCO3)CC1	1.1	-3.3	0.2	0.689	0.5	0.8	-2.5%
CC(C)N(Cc1ccccc1)C(=O)CN1C(=O)NC2(CCOc3ccccc32)C1=O (stereo unspecified)	-1.2	1.7	3.4	0.658	0.1	-6.1	/
Cc1ccc(/C=N\NC(=O)CC(=O)NCCc2ccccc2)cc1	0.1	-5.2	/	/	1.4	-0.2	?
COc1ccc(-c2cn3cccnc3n2)cc1NC(=O)c1ccc(Br)o1	-0.4	12.3	-162.1	0.737	-2.1	-5.7	-0.6%
Cc1ccnc(NC(=O)c2ccc3c(c2)C(=O)N(CCC(C)C)C3=O)c1	-1.3	0.4	2.5	0.691	5.6	0.1	-26.3%
Cc1cc(Cl)ccc1NC(=S)NCc1ccccc1	0.1	-1.2	3.1	0.678	0.1	1.8	-2.7%
COC(=O)c1ccc2c(=O)n(Cc3ccc(C(=O)NC4CCCC4)cc3)c(=S)[nH]c2c1	0.5	0.8	2.5	0.726	3.3	-7.0	4.8%
C#CCOCCOCCOCCNc1nc(N2CCN(C(=O)[C@H]([C@@H](C)CC)n3cc(CCCN=C(N)N)nn3)CC2)nc(N2CCN(C(=O)[C@H](CCCCN)n3cc(CCCC)nn3)CC2)n1	0.4	20.6	1.3	/	3.8	-0.1	2.2%
CC(=O)Nc1ccc(S(=O)(=O)Oc2ccc(Br)cc2C(=S)N2CCOCC2)cc1	-0.4	6.6	2.5	0.65	-3.3	4.5	2.9%
COc1ccc(-c2nc3ccccc3c(=O)n2NC(=O)Cc2ccccc2)cc1	0.0	3.2	3.1	0.645	-5.1	2.2	/
COc1ccc(/C=C(/NC(=O)c2ccc(C)cc2)C(=O)NCc2ccncc2)cc1	0.8	-6.0	5.9	0.683	5.2	-0.9	/
COc1ccc(-c2nn(-c3ccccc3)cc2/C=C2/SC(=S)N(CCC(=O)O)C2=O)c(C)c1	0.4	9.4	/	/	-5.8	2.6	/
CN1C2=NCCN2C(=O)c2cc(Cl)ccc21	2.0	-6.8	0.9	0.672	-0.9	-18.3	-17.5%
CC(=O)c1sc2nc(-c3cccs3)cc(C(F)(F)F)c2c1N	-0.3	-264.4	-15.5	0.734	10.7	0.7	-15.8%
Cn1c(SCc2nnc(-c3ccc(F)cc3)o2)nnc1C1COc2ccccc2O1 (stereo unspecified)	0.2	17.9	1.2	0.654	1.8	0.0	-1.8%
Cc1ccc(S(=O)(=O)NCC(=O)OCc2nnc(-c3ccccc3)o2)cc1C	0.3	1.6	0.4	0.777	-0.1	-1.1	13.5%
N#CCCCCn1ccc(NC(=O)c2ccc(Cl)cc2O)n1	-0.5	4.0	-32.5	0.645	2.0	-1.2	/
CC(=O)c1cccc(NC(=O)/C(=C\c2cccnc2)NC(=O)c2ccccc2)c1	-0.1	0.6	3.2	0.691	-1.4	-1.5	/
CCOc1cc(N2CCOCC2)c(OCC)cc1NC(=O)[C@H](C)NC(=O)c1ccco1	1.0	-9.8	0.6	0.701	-4.5	-0.5	15.0%
COc1ccc(NC(C)=O)cc1NC(=O)C1CCCN1C(=O)c1cccs1 (stereo unspecified)	/	-1.2	4.1	0.704	0.3	/	-4.2%
COc1cccc(-c2cc(C(=O)N3C(C)CCCC3C)no2)c1 (stereo unspecified)	0.2	-0.2	1.9	0.717	4.0	1.5	-2.6%
O=C(c1ccccc1)c1ccc(OCC(O)CN2CCN(Cc3ccccc3)CC2)cc1 (stereo unspecified)	-0.6	-12.4	-1.4	0.709	-2.6	5.2	25.4%
CC(=O)N1N=C(c2ccco2)CC1c1ccco1 (stereo unspecified)	0.9	-7.8	1.9	0.642	5.3	3.3	/
CC(C)[C@H](NC(=O)c1ccccc1)C(=O)OCC(=O)Nc1ncc(Cl)cc1Cl	0.3	-2.2	3.1	0.72	2.3	9.5	-3.4%
Cc1cccc(N2CCN(S(=O)(=O)c3cc(-c4cc(C)no4)ccc3C)CC2C)c1 (stereo unspecified)	0.8	-0.8	/	/	-0.8	-0.7	/
CCOc1cc(N2CCOCC2)c(OCC)cc1NC(=O)CCC1CCCC1	1.9	-0.9	7.7	0.741	0.5	4.2	9.6%
CCCc1cc(C(=O)N/N=C/c2cccn2C)cs1	0.0	-0.4	/	/	-3.4	-4.6	-0.6%
CCC(CC)C(=O)Nc1nnc(S(=O)(=O)N(CC)c2ccc(OC)cc2)s1	1.3	9.8	3.6	0.68	-3.7	1.4	4.6%
Cc1ccnc(NS(=O)(=O)c2ccc(NC(=O)C3COc4ccccc4O3)cc2)n1 (stereo unspecified)	-3.0	-6.3	3.5	0.705	0.3	3.2	/
O=c1c2ccccc2c(C=Nc2ccc(O)cc2)c(O)n1-c1nccs1	0.4	/	-13.7	0.69	/	3.8	-0.5%
O=S(=O)(Nc1cc(C(F)(F)F)ccc1N1CCOCC1)c1ccc2ccccc2c1	0.0	2.1	0.7	0.705	1.5	-2.1	6.9%
CS(=O)(=O)c1cnc(-c2ccccc2)nc1Oc1ccc(F)cc1	-0.1	5.1	4.6	0.709	3.7	1.8	-9.2%
CC1CCN(CCCNC(=O)C2CC(=O)N(C3CCCCCC3)C2)CC1 (stereo unspecified)	0.4	-4.3	-0.9	0.669	3.3	0.5	3.5%
S=c1[nH]nc(-c2ccco2)n1/N=C/C=C/c1ccccc1	-0.7	1.4	/	/	-4.7	-0.6	2.9%
COc1ccc(-c2ccc(-c3noc(-c4ccco4)n3)c(OC)n2)cc1	0.0	3.7	-81.7	0.725	15.3	-1.8	10.2%
CCCCCCSc1ccc(-c2nc3cnccn3c2NCCCC)cc1	-0.3	-380.5	/	/	9.3	1.9	/
COc1ccc(OCCN2CCOCC2)cc1	-0.2	2.6	-0.5	0.71	2.4	5.1	/
Cc1nnc(-c2cnn(C)c2N)n1Cc1ccc2c(c1)OCO2	0.7	-1.0	4.5	0.728	-0.1	6.7	4.4%
Cc1ccc(NC(C)C(=O)N/N=C/c2ccc([N+](=O)[O-])s2)cc1 (stereo unspecified)	0.7	4.8	/	/	-0.6	-0.8	-5.5%
COc1cc(NC(=O)N[C@@H](Cc2ccccc2)C(=O)O)cc(OC)c1	0.0	-3.6	/	/	-0.4	-2.1	-4.3%
O=C(CCCCCCCC(=O)N1CCCC1)N1CCCC1	/	-9.3	-0.6	0.673	-2.9	/	-1.7%
CC(C)OCCCNC(=O)C(NS(=O)(=O)c1ccc2c(c1)c(=O)n(C)c(=O)n2C)c1ccccc1 (stereo unspecified)	0.4	/	/	/	/	0.0	0.1%
O=C(CN1CCCC1)N1c2ccccc2Sc2ccccc21	0.8	-4.6	2.4	0.74	-0.1	-2.4	32.4%
CCC(C)(C)NC(=O)C(c1ccncc1)N(C(=O)c1sc(C)nc1C)c1ccc(F)cc1 (stereo unspecified)	-1.0	-5.4	-1.8	0.685	1.0	-0.6	-0.6%
Cc1ccc(S(=O)(=O)N2CCC(C(=O)N3CCC[C@H]3C(=O)NCc3ccco3)CC2)cc1	0.6	-1.5	5.9	0.676	-3.0	4.2	21.4%
S=C(NCc1ccccc1)NCc1ccc(Cl)cc1	0.8	-10.3	-1.2	0.682	3.4	-4.2	/
Cc1ccc(-c2nn(-c3ccccc3)cc2NC(=O)CCl)cc1	-0.1	7.8	7.3	0.705	3.5	-11.1	/
Cc1cc(C(=O)Nc2cccc3c2O[C@@H](CN(C)S(=O)(=O)c2ccccc2)[C@H](C)CN([C@@H](C)CO)C3=O)n(C)n1	?	0.8	0.4	/	-3.3	2.5	/
CC1Cc2ccccc2N1c1ncnc2nc[nH]c12 (stereo unspecified)	-0.1	6.8	7.1	0.713	3.2	0.8	-9.8%
O=C(CN1CCN(Cc2ccccc2)CC1)Nc1cccc(C(F)(F)F)c1	0.7	3.3	1.5	0.64	-0.3	-4.2	2.7%
COC(=O)C1CN(Cc2ccccc2)C(=O)C1=O (stereo unspecified)	/	0.9	0.0	0.693	-2.0	/	-1.9%
O=C1CN(CC(=O)NC2CCCc3ccccc32)CCN1 (stereo unspecified)	?	-1.1	1.2	0.669	3.8	-2.0	-1.4%
Cn1c(CS/C(N)=N/N=C/c2ccccc2)c(Br)c(=O)n1-c1ccccc1	-0.4	3.5	/	/	-0.2	4.2	4.9%
CCOc1ccc(-n2cnnn2)cc1S(=O)(=O)N1CCC(C)CC1C (stereo unspecified)	0.3	-7.6	2.3	0.691	-2.4	-1.7	-5.0%
CC(C)N1CCN(Cc2ccsc2)CC1CCO (stereo unspecified)	0.6	5.0	5.0	0.645	3.2	-5.7	11.4%
CCN1C(=O)/C(=C\N(C)C)NC1=S	1.3	-4.5	9.3	0.71	1.2	-0.5	6.0%
COc1ccc(C(=O)Nc2ccc(NC(=O)Cc3ccccc3)cn2)cc1	2.2	-1.3	0.9	0.696	-33.8	3.2	/
O=C1c2cccc3c2N(CCC3)C(=O)C1(F)c1ccccc1 (stereo unspecified)	0.9	1.3	1.4	0.651	2.8	3.6	/
CCn1cc([N+](=O)[O-])c(C(=O)N2CCN(C(=O)c3ccco3)CC2)n1	0.3	-3.4	5.9	0.718	0.8	11.9	-4.4%
COc1ccccc1CNC(=S)Nc1ccc(F)cc1	0.4	-8.8	1.4	0.718	0.1	5.4	/
Other results
SMILES	A1 inh	Beta2AR agonist	UCH37 inh	E coli growth	HNF4A DNA FP	LANA-H2A inh	Vif TR-FRET
CC(CN)(NS(=O)(=O)c1ccccc1)c1ccccc1 (stereo unspecified)	0.2	-7.2	1.2	0.606	2.7	6.2	/
COc1ccccc1C(=O)Nc1ccc2c(c1)nc1n2CCN(Cc2ccccc2)C1	-0.5	29.5	-0.7	0.694	7.9	16.3*	17.0%
Cc1nnc(SCC(=O)Nc2nsc(-c3ccc(C(C)(C)C)cc3)n2)s1	-1.7	9.1	1.2	0.742	4.0	4.5	30.1%
COc1ccc(CN2CCNC(=O)C2CC(=O)N(C)CCC2CCOCC2)c(OC)c1 (stereo unspecified)	2.6	-1.6	1.0	0.7	0.4	2.6	/
Cc1cccc(C)c1NC(=O)CN	0.5	-4.8	5.1	0.667	-1.2	0.4	18.4%
O=C(c1ccc(COc2ccccc2Cl)o1)N1CCOCC1	1.0	-8.3	1.1	0.639	2.1	-5.0	/
CCCCNC(=O)C(CC)(ONc1ccccc1C(F)(F)F)c1ccccc1 (stereo unspecified)	-0.3	0.3	2.6	0.716	3.2	3.2	/
CN(CC(=O)Nc1ccccc1Br)C(=O)Cn1[nH]c(=O)c2ccccc2c1=O	-0.2	7.7	0.3	0.619	-0.1	-4.6	9.0%
CCn1cc(C(=O)N2CCc3ccccc32)c(=O)c2cc(S(=O)(=O)N3CCCCCC3)ccc21	0.3	17.1	3.9	0.689	-1.6	-8.0	16.2%
O=C(Nc1ccc(Cl)cc1Cl)C1CCC(=O)N1Cc1ccccc1Cl (stereo unspecified)	-0.3	-3.4	1.4	0.746	-1.6	-0.2	0.7%
Cc1ccc(C)c(NC(=O)C(OC(=O)c2ccc(CO)cc2)c2ccccc2)c1 (stereo unspecified)	/	-7.8	5.3	0.659	0.7	/	-1.8%
COc1ccc(S(=O)(=O)Nc2ccc(Oc3ncccn3)c(Cl)c2)cc1	-1.2	-0.7	-1.5	0.737	-1.7	0.5	-2.9%
S=C(Nc1ccccc1)N1CCN(C(=S)c2ccccc2)CC1	2.0	1.6	-1.3	0.683	-0.1	2.9	0.8%
